# Mtb H37Rv: Mycobacterium tuberculosis H37Rv growth inhibition, cell based, confirmatory dose response (AID 1949) | most inactive calls were filed without a number and no value below 0 was filed | inhibition, % at 10 µg/mL, or IC50 in µg/mL where a hit was titrated | 100,000 tested, 1.6% active;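 active = confirmed in a dose series; inconclusive = about 50% or more but not retested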;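 note: bacteria grown 7 days with compound before Alamar blue readout; 0% = untreated bacteria and 100% = reference antibiotic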
# Starred values were filed as active, the others as inactive; i = inactive; u = inconclusive. These rows are one share of the data, so the mix of outcomes need not match the whole.
SMILES,Mtb H37Rv
Cc1cccc(NC(=O)C2CCN(C(=O)c3ccc(C(C)(C)C)cc3)CC2)c1C,0.2%
O=C(Nc1ccccc1C(F)(F)F)C1C2C3CCC(C3)C12 (centres undefined),i
CCC(C)(C)C(=O)Nc1ccc(I)cc1,2.6%
CC1CN(C(=O)c2ccc(COc3ccccc3Br)o2)CC(C)O1 (centres undefined),0.8%
C=CCN(C(=O)Nc1ccccc1)C1CC(=O)N(c2ccc(F)cc2)C1=O (centres undefined),1.5%
Cc1sc(NC(=O)COc2ccccc2)c(C#N)c1-c1ccccc1,i
CCc1ccc(OCCCC(=O)Nc2ccc(OC)c(Cl)c2)cc1,i
COC(=O)c1ccc(C2C(C(=O)c3ccco3)=C(O)C(=O)N2CCc2ccccc2)cc1 (centres undefined),i
CCOC(=O)COc1ccc2c(C)c(CC(=O)OC)c(=O)oc2c1,35µg/mL*
COc1ccc(N(CC(=O)Nc2ccccc2SC)S(C)(=O)=O)cc1OC,i
CCCOc1ccc(C2C(C(=O)c3cccs3)=C(O)C(=O)N2Cc2ccco2)cc1OCC (centres undefined),i
Cc1occc1C(=O)NCCCN1CCN(CCCNC(=O)c2ccoc2C)CC1,i
CCc1ccccc1OCC(=O)Nc1ccc(F)cc1,2.3%
CN(c1ccc(OCC(=O)O)cc1)S(=O)(=O)c1ccc(F)cc1,i
Cn1c(SCc2ccccc2Br)nnc1-c1cc(Cl)ccc1O,i
CCc1ccc(Nc2nc(=O)[nH]nc2C)cc1,i
COc1cccc(N2C(=O)CC(N3CCc4ccccc43)C2=O)c1 (centres undefined),i
Cc1cc([N+](=O)[O-])ccc1NC(=O)c1ccccc1CCc1ccccc1,i
CC(C)C(NC(=O)OCc1ccccc1)C(=O)NCC(=O)OC(C)(C)C (centres undefined),7.5%
Cc1sc2ncn(CC(=O)N3CCCC3)c(=O)c2c1-c1ccc(F)cc1,i
O=C(O)CCCC(=O)Nc1nc2n(n1)C(c1ccccc1)C=C(c1ccccc1)N2 (centres undefined),i
Ic1ccccc1-c1nc(-c2ccccn2)no1,i
O=C(Nc1ccccc1C(F)(F)F)C1c2ccccc2Oc2ccccc21,i
CCCc1cc(C(=O)OCC)c(NC(=O)C2C3CCC(C3=C(C)C)C2C(=O)O)s1 (centres undefined),i
O=c1c2ccccc2[nH]c(=S)n1-c1ccccc1Cl,i

# (listing goes on)
SMILES,Mtb H37Rv
Cn1c(CN2CCOCC2)nnc1SCc1ccc(Br)cc1,i
O=C(CC1(O)C(=O)N(Cc2ccc(Cl)cc2)c2ccccc21)c1cccs1 (centres undefined),0.5%
Nc1nc(SCC(=O)N2CCCCCC2)n[nH]1,i
O=S(=O)(O)c1cccc2cccc(Cl)c12,i
CC(Oc1ccccc1)C(=O)Nc1ccc(F)c(F)c1 (centres undefined),i
CC(=O)Nc1ccccc1C(=O)OCc1ccc(Cl)cc1,0.9%
CN1CCN(c2nc(NCCNc3ccc([N+](=O)[O-])cc3)c3ccccc3n2)CC1,2.4%
COc1ccccc1C(=O)Nc1ccc(S(=O)(=O)Nc2nccc(C)n2)cc1,12.3%
CCOc1ccc(Cl)cc1S(N)(=O)=O,0.9%
O=S1(=O)N=C(Nc2ccc3c(c2)Cc2ccccc2-3)c2ccccc21,1.3%
Cn1nnnc1SCC(=O)Nc1ccc([N+](=O)[O-])cc1,u
CN(c1ccc(C(F)(F)F)cn1)C1CCCCC1,i
CCCCN1C(=O)c2ccc(C(=O)NC3=NCCS3)cc2C1=O,i
O=C(Nc1c(F)cc(F)cc1Br)c1cnn2cccnc12,i
CC(C)Oc1ccc(OCCSc2nc3ccccc3n2CC(=O)O)cc1,i
Cc1cccc(N2CCN(C(=S)Nc3ccccc3Cl)CC2)c1C,i
COC(=O)C1C(=O)CC(C)(O)C(C(=O)OC)C1/C=C/c1ccccc1 (centres undefined),i
COc1ccc(-c2csc(NC(=O)Cn3nc(C)cc3C)n2)cc1,i
Cc1cccc(NC(=S)NC(=O)CC2CC(C)(C)OC2=O)c1 (centres undefined),i
CCC(CC)C(=O)Nc1ccc(NC(=O)C(CC)CC)cc1,i
CCOC(=O)c1ccc(NC(=O)CC2C(=O)N(Cc3ccccc3)C(=S)N2Cc2cccnc2)cc1 (centres undefined),6.04µg/mL*
COc1ccc(CC(=O)Nc2ccc(C(C)=O)cc2)cc1,i
CC12CCC(C(=O)NC3CCCCC3)(C(=O)C1=O)C2(C)C (centres undefined),i
O=C(NC(=S)Nc1ccccc1C(=O)O)c1ccccc1Cl,i
O=C(O)Cc1nnnn1-c1ccccc1,i

# The list goes on, overlapping the part above by 5 compounds.
SMILES,Mtb H37Rv
CCOC(=O)c1ccc(NC(=O)CC2C(=O)N(Cc3ccccc3)C(=S)N2Cc2cccnc2)cc1 (centres undefined),6.04µg/mL*
COc1ccc(CC(=O)Nc2ccc(C(C)=O)cc2)cc1,i
CC12CCC(C(=O)NC3CCCCC3)(C(=O)C1=O)C2(C)C (centres undefined),i
O=C(NC(=S)Nc1ccccc1C(=O)O)c1ccccc1Cl,i
O=C(O)Cc1nnnn1-c1ccccc1,i
COc1ccc(CCNC(=O)CN(c2cccc(Cl)c2)S(C)(=O)=O)cc1,i
C=CCNCCCOc1ccc(Br)cc1C,i
O=C(Nc1ccc(C(=O)OCc2nnc(-c3ccccc3)o2)cc1)c1ccccc1,i
O=[N+]([O-])c1cc(C(F)(F)F)ccc1N1CCCC(O)C1 (centres undefined),i
O=C(Cc1ccccc1)NC(c1ccco1)c1c(O)ccc2ccccc12 (centres undefined),3.8%
CCN(CC)C(=O)c1ccc(Nc2nnc(-c3ccc(O)cc3)c3ccccc23)cc1,0.1%
CCC(C)c1ccc(NC(=S)NC(C)C2CCCO2)cc1 (centres undefined),4.9%
COc1ccc(-c2n[nH]c(=S)n2-c2ccc(OC)cc2)cc1,0.3%
CC(C)c1cc(Br)ccc1NC(=O)CSc1n[nH]c(-c2ccc(Cl)cc2)n1,1.6%
CCC(C)(C)C1CCC(NC(=O)C(=O)Nc2ccccc2)CC1 (centres undefined),i
COc1cccc(CNc2cnc3ccccc3c2)c1O,2.1%
Cc1ccccc1-n1c(/C=C/c2ccccc2O)nc2ccc(Br)cc2c1=O,i
Cc1ccc(SCC(=O)O/N=C(\N)c2ccccn2)cc1,i
O=C(Nc1ccon1)c1sc2ccccc2c1Cl,i
COc1cccc(C=O)c1OC(=O)c1ccccc1F,i
CC(=O)c1cccc(NC(=O)CCc2ccc(S(=O)(=O)NC3CCCCC3)cc2)c1,i
CS(=O)(=O)Nc1ccc(C(=O)NCc2ccc(Cl)cc2)cc1,i
COc1cccc(OC)c1C(=O)Nc1cc(-c2nc3ccccc3o2)ccc1C,i
CCn1c(CNC(=O)c2ccco2)nnc1SCC(=O)N1CCN(c2ccccc2)CC1,i
Cc1ccc(F)cc1NC(=O)CSc1nnnn1-c1ccccc1,i
CCOc1ccc(NC(=S)NCCCn2ccnc2)cc1,i
C=CCn1c(SCC(=O)Nc2ccc(OC)cc2)nnc1-c1ccc([N+](=O)[O-])cc1,i
NS(=O)(=O)c1ccc(-n2cccc2C=O)cc1,i
CCc1ccc(NC(=O)CCc2ccc(CC)o2)cc1,37.5%
CCc1cc(Br)ccc1NC(=O)Nc1cccc(C(C)=O)c1,2.3%

# Structural class, those above with a CF3 group.
SMILES,Mtb H37Rv
O=C(Nc1ccccc1C(F)(F)F)C1C2C3CCC(C3)C12 (centres undefined),i
O=C(Nc1ccccc1C(F)(F)F)C1c2ccccc2Oc2ccccc21,i
CN(c1ccc(C(F)(F)F)cn1)C1CCCCC1,i
O=[N+]([O-])c1cc(C(F)(F)F)ccc1N1CCCC(O)C1 (centres undefined),i

# (cont.)
SMILES,Mtb H37Rv
O=C(Nc1cccc(NC(=O)C2CCCO2)c1)C1CCCO1 (centres undefined),i
CCOC(=O)c1cccc(S(=O)(=O)N2CCOCC2)c1,i
Cc1ccc(OCCOCCN2CCCCC2)c([N+](=O)[O-])c1,i
CC(C(=O)O)(c1ccccc1)c1ccccc1,i
O=C1CC(C(=O)Nc2ccc(Br)cc2)C2(CCCC2)O1 (centres undefined),i
CCC(C)c1ccccc1NC(=O)c1ccncc1 (centres undefined),i
CCCCC(=O)Nc1cc(Cl)ccc1C(=O)O,i
O=C(Nc1c(F)cc(F)cc1Br)c1cc(-c2ccccc2)on1,u
CNC(=S)Nc1cccc(C(=O)O)c1,i
O=C(CNS(=O)(=O)c1ccc(Br)cc1)Nc1ccccc1Cl,i
N=c1c(C(=O)NC2CCCCC2)cc2c(=O)n3ccccc3nc2n1C1CCCCC1,i
Cc1ccc(C(=O)NCc2ccc(Cl)cc2)cc1C,i
Cc1ccc(C)c(NS(=O)(=O)c2ccccc2[N+](=O)[O-])c1,i
Cc1cccc(NC(=O)CSc2nnc(SCC(=O)Nc3cccc(C)c3)s2)c1,i
O=C(O)CCCC(=O)Nc1ccccc1C(=O)N1CCOCC1,i
O=C(c1ccc(S(=O)(=O)c2ccccc2)cc1)N1CCc2ccccc21,i
Cc1cc(NS(=O)(=O)c2ccc(NC(=O)COc3ccc(Br)cc3)cc2)no1,i
Cc1cc(C(=O)Nc2ccc(Cl)cc2F)ccc1[N+](=O)[O-],i
Cc1ccc(-n2c3c(cc(C(=O)Nc4ccc5c(c4)OCCO5)c2=O)C(=O)CCC3)cc1,i
Cc1ccc2c(Cl)c(C(=O)Nc3cc(S(N)(=O)=O)ccc3C)sc2c1,0.6%
Cc1ccc(SCCNC(=O)CN2C(=O)c3cccc4cccc2c34)cc1,i
O=C(O)c1ccccc1-c1ccccc1C(=O)Nc1ccc(OC(F)(F)F)cc1,21.6%
COC(=O)c1cc(Nc2ncnc3c2cnn3-c2ccccc2)cc(C(=O)OC)c1,i
CC(=O)c1cccc(NC(=O)Nc2ccc(Br)cc2F)c1,i
CCOc1ccc(C(=O)NC(=S)Nc2cc(NC(=O)c3ccco3)ccc2OC)cc1[N+](=O)[O-],i

# The list goes on:
SMILES,Mtb H37Rv
Cc1ccc2c(c1)c1n[nH]c(=S)nc1n2Cc1ccccc1,i
COc1ccc(C(=O)Nc2cnc3ccccc3c2)cc1,0.0%
O=C(CCN1CCCCCC1)c1ccc(Cl)cc1,22.7µg/mL*
O=C(CN1CCc2ccccc2C1)Nc1ccccc1,i
COc1cccc2cc(C(=O)N3CCN(c4ncccn4)CC3)c(=O)oc12,i
CC(NS(=O)(=O)c1ccc(Cl)s1)c1ccccc1 (centres undefined),1.8%
COc1ccccc1N1CCN(C(=O)CN(c2cc(Cl)ccc2C)S(C)(=O)=O)CC1,i
CC(=O)CCc1c(C)c2ccccc2[nH]c1=O,i
CC(=O)Nc1ccc(S(=O)(=O)Nc2ccc(F)cc2F)cc1,i
CSc1nsc(SCC(=O)Nc2ccc(C)c(Cl)c2)n1,i
COc1cc(OC)cc(C(=O)Nc2ccc3c(c2)OCCO3)c1,i
O=c1c2ccccc2ncn1CCOc1ccc(Cl)c(Cl)c1,i
COc1ccc(S(=O)(=O)N(C)CC(=O)NC2CCCCCC2)cc1C,i
COC(=O)CSc1ncnc2scc(-c3ccc(Br)cc3)c12,i
O=C(Nc1ccc(S(=O)(=O)NCCc2ccccc2)cc1)c1ccc([N+](=O)[O-])cc1,i
CCn1cc(C(=O)O)c(=O)c2cc(F)c(N3CCN(C(=S)NCc4ccccc4)CC3)cc21,1.7%
O=C(Nc1ccc(N2CCOCC2)cc1)c1ccc(S(=O)(=O)N2CCOCC2)cc1,i
N#C/C(=C/c1ccc(C(=O)O)cc1)c1ccc(F)cc1,i
CCC(C)c1ccccc1NC(=O)c1cc(Br)ccc1Cl (centres undefined),32.3%
O=C(Cc1ccccc1)Nc1ccc(N2CCN(C(=O)c3cccs3)CC2)cc1,i
CCC(Oc1ccccc1)C(=O)N(C)C (centres undefined),i
Cc1ccc(S(=O)(=O)Nc2ccc([N+](=O)[O-])cc2)cc1,i
COc1ccc(C(O)C(Nc2ccc(C)cc2)c2nc3ccccc3n2C)cc1 (centres undefined),i
Cc1ccc(OCCCCn2ccnc2)c([N+](=O)[O-])c1,i
COc1ccc(S(=O)(=O)N(C)CC(=O)Nc2ccc(OCc3ccccc3)cc2)cc1OC,i

# New compounds follow
SMILES,Mtb H37Rv
CC(C)(C)N1C(=O)c2ccc(C(=O)Nc3ccccc3C(=O)O)cc2C1=O,i
O=C(Nc1ccc(Cl)cc1Cl)C1CCN(C(=O)c2ccc(Cl)cc2Cl)CC1,i
COc1ccc(C(=O)n2nc(-c3ccc(Cl)cc3)nc2N)cc1OC,i
CC(=O)c1cccc(NC(=O)COc2ccc(S(=O)(=O)NC3CCCC3)cc2)c1,i
Cc1ccc(C(=O)Nc2ccc(-c3nc4ncccc4o3)cc2)cc1[N+](=O)[O-],2.5%
CCn1c(=O)c([N+](=O)[O-])c(NC2CCCCC2)c2ccccc21,u
COc1ccc(-c2cc(C(=O)N=Nc3c(O)[nH]c4ccccc34)[nH]n2)cc1,i
O=S(=O)(c1ccc(C2CCCCC2)cc1)N1CCCCCC1,4.7%
CCOc1cc(/C=C(/C#N)c2ccc(Cl)cc2)cc(Cl)c1OCC(=O)O,i
Cc1ccccc1CN(c1ccc(C(=O)Nc2ccc(Cl)cc2)cc1)S(C)(=O)=O,i
CCOc1ccccc1C1C(C(=O)OC)=C(C)NC2=C1C(=O)CC(C)(C)C2 (centres undefined),i
Cc1cc(C)cc(OCC(=O)Nc2ccc(S(=O)(=O)N(C)Cc3ccccc3)cc2)c1,6.0%
CCCCc1ccc(NC(=O)c2ccc(N(C)S(C)(=O)=O)cc2)cc1,i
CC12CCC(C(=O)Nc3nccs3)(c3nc4ccccc4nc31)C2(C)C (centres undefined),1.1%
CN1CCN(C(=O)c2cc(-c3ccccc3)on2)CC1,i
CN(c1ccccc1C(=O)Nc1cccc(Br)c1)S(=O)(=O)c1ccccc1,i

# Some of these compounds in order of formula weight, low to high.
SMILES,Mtb H37Rv
CN1CCN(C(=O)c2cc(-c3ccccc3)on2)CC1,i
COc1ccc(-c2cc(C(=O)N=Nc3c(O)[nH]c4ccccc34)[nH]n2)cc1,i
Cc1cc(C)cc(OCC(=O)Nc2ccc(S(=O)(=O)N(C)Cc3ccccc3)cc2)c1,6.0%
CN(c1ccccc1C(=O)Nc1cccc(Br)c1)S(=O)(=O)c1ccccc1,i

# High-throughput results: PubChem BioAssay, Southern Research Institute
